Assay outcomes deposited in PubChem BioAssay by National Center for Advancing Translational Sciences (NCATS).
A488 autofl = compound autofluorescence in A488 spectral region; compound autofluorescence, A488 spectral region, dye equivalency; stronger effect = higher value; max dye equivalency, M; hit rate 0.1% among 59,000; active = above 10 nM dye equivalent; inconclusive = 1 to 10 nM; inactive = 1 nM or less; about half of its hits are not listed in these tables;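 further: highest value over a series up to 38 µM; compound alone in buffer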
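Read-out: relative fluorescence at 480/540 nm, expressed as Alexa 488 dye-equivalent concentration from a six-point A488 standard included per plate. Conditions: 100 mM Tris, pH 8.0; 15 min incubation, room temperature.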
A647 fluor = A647 region autofluorescence | Compound fluorescence, A647 channel (570/671 nm), Tris buffer | max dye-equivalent concentration, M | 59,000 tested, under 10 active; active means above 1 µM dye equivalent; inconclusive means 0.1 to 1 µM; inactive means 0.1 µM or less;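 further: values scaled relative to a standard on each plate; highest value over a series up to 38 µM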
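Tris 100 mM pH 8.0; cpd + A647 stds pin-transferred; 15 min RT; CCD imager, ex 570/em 671. Output = A647-equivalent conc. per cpd conc.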
Resorufin autofl = compound fluoresces in the resorufin spectral region; Compound fluorescence, resorufin region 547/598 nm, buffer; stronger effect = higher value; max dye-equivalent concentration, M; hit rate 0.04% among 59,000; active = above 10 nM dye equivalent; inconclusive = 1 to 10 nM; inactive = 1 nM or less; a few of its hits are not listed in these tables; further: highest value over a series up to 38 µM
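Dye-equivalent concentration values derive from comparing each well's 547/598 nm fluorescence against resorufin standards included on every plate. Incubation was 15 min at room temperature in 100 mM Tris, pH 8.0.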
TSHR agonist = agonists of human thyroid stimulating hormone receptor | P16473 | HEK293-CNG-TSHR cells (CNG channel as cAMP sensor), membrane potential dye, cAMP | Potency, µM (doses to about 57.1 µM), inactives show at the highest dose activation, actives largely listed as activators | hit rate 0.48% among 73,000; active = well fitted activation curve of enough size with the parental cells flat; inconclusive = any curve in the parental cells; inactive = parental cells flat and receptor cells flat or falling; further: potency means the concentration at half of the fitted maximal effect; % of control where 0% means no effect; weak receptor curves with flat parental cells got no call and are not listed
Target sequence (P16473 whole entry, looked up): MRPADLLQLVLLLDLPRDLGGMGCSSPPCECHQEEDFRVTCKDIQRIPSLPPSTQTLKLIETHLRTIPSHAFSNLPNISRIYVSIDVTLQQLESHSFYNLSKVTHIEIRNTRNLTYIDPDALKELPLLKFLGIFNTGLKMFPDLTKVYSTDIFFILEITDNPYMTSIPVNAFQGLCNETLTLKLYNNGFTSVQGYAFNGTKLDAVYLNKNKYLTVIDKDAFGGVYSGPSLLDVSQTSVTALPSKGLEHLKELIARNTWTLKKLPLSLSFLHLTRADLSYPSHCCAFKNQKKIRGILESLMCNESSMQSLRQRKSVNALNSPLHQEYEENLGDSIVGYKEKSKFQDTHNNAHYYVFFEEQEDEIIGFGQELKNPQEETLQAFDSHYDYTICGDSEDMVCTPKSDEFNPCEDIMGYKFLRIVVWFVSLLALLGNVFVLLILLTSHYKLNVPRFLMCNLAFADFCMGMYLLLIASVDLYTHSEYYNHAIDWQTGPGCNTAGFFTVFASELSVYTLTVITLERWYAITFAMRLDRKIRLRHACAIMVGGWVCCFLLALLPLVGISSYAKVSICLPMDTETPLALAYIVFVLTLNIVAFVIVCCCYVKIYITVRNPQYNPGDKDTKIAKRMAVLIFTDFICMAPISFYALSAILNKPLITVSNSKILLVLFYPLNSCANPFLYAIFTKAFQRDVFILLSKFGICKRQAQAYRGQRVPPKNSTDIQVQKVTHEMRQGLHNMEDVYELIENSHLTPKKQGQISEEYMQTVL
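cAMP rise detected as CNG-channel membrane depolarization by fluorescent dye (emission 590 nm), 30 min after compound, following 60 min dye loading containing 100 uM RO 20-1724 at room temperature. Cells: TSHR/CNG HEK 293, with parental CNG HEK 293 as control.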
AID923 = qHTS Assay for Allosteric/Competitive Inhibitors of Caspase-1: Spectroscopic Profiling in AFC Spectral Region. compound fluorescence, AFC spectral region (405/520 nm); almost no hit is shown here. Potency, µM (highest dose often 57.5 µM), for inactives: at the highest dose fluorescence increase, usual class: activators. hit rate 1.1% among 75,000. AID 923, 2007; active means well fitted activation curve with a large enough effect; inconclusive means small, poorly fitted or top-dose-only effect;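 further: potency means the concentration at half of the fitted maximal effect; 0% is about no effect; scaled to a free AFC standard on each plate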
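Compound autofluorescence profiled at 405 nm ex/520 nm em during kinetic caspase 1 run (50 nM enzyme, 5 uM Ac-WEHD-AFC, HEPES pH 7.5, 10 mM DTT). Titration up to 57 uM; baseline from regression intercept, normalized to AFC standard curve.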
An asterisk follows results filed as active; i = inactive; ? = inconclusive; . = no result given; [ ] = another dose, or the depositor's remark. Some of the compounds tested; the hit share may differ from the screen's.

SMILES | A488 autofl | A647 fluor | Resorufin autofl | TSHR agonist | AID923
CCOC(=O)CN1CC23C=CC(O2)C(C(=O)Nc2ccc(F)cc2)C3C1=O (centres undefined) | i | 1e-09 | i | 1% | 1.2%
CC12CC3OS(=O)OC3CC3C4C(C(OCc5ccccc5)C31)C42 (centres undefined) | . | . | . | 0%[11.4 µM] | -2.7%[11.5 µM]
C/C=C\C1=C(CO)C(=O)C2O[C@]2(CC=C(C)C)C1=O (some centres undefined) | . | . | . | 4%[11.4 µM] | 0.8%[11.5 µM]
COc1ccccc1CNC(=O)c1cc2c(s1)CS(=O)(=O)C2 | i | 1.6e-09 | i | -1%[11.4 µM] | 0.4%
O=C(NCCCN1CCc2ccccc2C1)C1CCN(S(=O)(=O)N2CCCC2)CC1 | i | 1e-09 | i | 3% | 1.1%
COC(=O)c1ccc(C(c2c(N)n(CC(C)C)c(=O)[nH]c2=O)N2CCN(c3ccccc3)CC2)cc1 (centres undefined) | i | 2.1e-08 | i | . | 0.9%
CC(=O)c1c(N2CCN(Cc3ccc4c(c3)OCO4)CC2)nc(=S)n(-c2ccccc2)c1C | i | 1.2e-08 | i | 0% | 9.8%
NCCCNC(=O)c1cc2ccccc2[nH]1 | i | 1.4e-08 | i | 3% | 0.7%
O=C1CCCC2=C1C(c1cccs1)n1ncnc1N2 (centres undefined) | i | 1e-09 | i | 3% | 1.3%
Cc1ccc(C)c(CN2CCCNC2=O)c1 | i | 1e-09 | i | 7% | -0.5%
CCCCCCN(C(=O)CCCCCN1C(=O)NC(c2ccc(C(F)(F)F)cc2)C(C(=O)OCc2ccccc2)=C1C)C(C(=O)NCCCC)c1ccc(OCC(=O)OC)c(C(=O)OC)c1 (centres undefined) | . | . | . | 6% | -0.3%
O=C(CCN1C(=O)c2ccccc2S1(=O)=O)Nc1nc2c(s1)CCCC2 | i | 1.7e-08 | i | 19% | -3.9%
COc1ccc(NC(=O)CC2C(=O)N(c3cccc(OC)c3)C(=O)N2C2CCCCC2)cc1 (centres undefined) | i | 5.1e-09 | i | 23% | 1.2%
CCOC(=O)N1CCC(NCCNC(=O)c2ccccc2Cl)CC1 | i | 3.4e-08 | i | 10% | -0.3%
COC(=O)c1ccc(C(NC(=O)OCc2ccccc2)/C(F)=C/[C@@H](C)C(=O)Nc2ccc(OC)cc2)cc1 (some centres undefined) | . | . | . | 23% | 1.2%
CCN(CC)C(=O)C1CCN(c2ncnc3c2cnn3-c2ccc(C)cc2C)CC1 | i | 1.2e-08 | i | . | .
COC(=O)[C@@H](NC(=O)NC1CCN(Cc2ccccc2)CC1)C(C)C | i | 2.9e-08 | i | 1% | 0.1%
C=CCn1c(SCc2nnc(-c3ccccc3)o2)nnc1C(O)c1ccccc1 (centres undefined) | i | 2.3e-08 | i | 7% | -0.4%
FC(F)C(F)(F)C(F)(F)C(F)(F)c1cc(-c2ccccc2)n[nH]1 | . | . | . | 0% | -0.2%
c1cncc(-c2nnc(SCc3cccc4ccccc34)o2)c1 | . | . | . | 18% | 2.0%
Cc1nn2c(N3CCOCC3)c3c(nc2c1-c1ccccc1)CCCC3 | i | 3e-08 | i | -19% | -1.0%
COc1ccc(OC)c(-n2c(CN3CCC(C(N)=O)CC3)nc3ccccc3c2=O)c1 | i | 2.4e-09 | i | 0% | -0.3%
Clc1ccc(Cn2cc(Br)cn2)cc1Cl | i | 1e-08 | i | ? | 0.3%
CN1CCN(C(=O)CSc2nc(-c3cccs3)cc(-c3cccs3)c2C#N)CC1 | i | 2.6e-08 | i | 9% | 4.8%
O=C1CC2(CCCC2)CC(=O)N1CCCCNC[C@H]1COc2ccccc2O1 | . | . | . | 25% | -0.7%
COc1ccc(CN(CC(=O)NCC2CCCO2)C(=O)CCC(=O)Nc2cc(C)ccn2)cc1 (centres undefined) | i | 3.1e-08 | i | 3% | -1.3%
COc1ccc(Cl)cc1N=Cc1c(O)cc(C)oc1=O | i | 1.7e-08 | i | . | .
CCCC(=O)Nc1ccccc1NC(=O)CN(C)S(=O)(=O)c1ccccc1 | i | 1e-09 | i | 13% | -1.0%
O=c1c(-c2ccc(Br)cc2)coc2c(CN3CCOCC3)c(O)ccc12 | i | 3.9e-09 | i | -5% | 0.9%
CCN1CCCC1CNC(=O)c1ccc(CS(=O)(=O)c2ccccc2C)o1 (centres undefined) | i | 6.6e-09 | i | 12% | -1.4%
CCOC(=O)c1c(NC(=O)CSc2nnc(-c3ccccc3)n2CC)sc(C(C)=O)c1C | i | 1.6e-09 | i | ? | 2.6%
Cc1cccc(-n2c(SCC(=O)Nc3nnc(C)s3)nnc2-c2ccoc2C)c1 | i | 3.3e-08 | i | -1% | 1.5%
COCCOC(=O)c1c(C)oc2ccc(OC(=O)c3ccc4c(c3)OCO4)cc12 | i | 1e-09 | i | ? | -1.2%
Cc1ccc(SCCNC(=O)C(C)C)cc1 | i | 7.8e-09 | i | 10% | -0.6%
COc1cc(C2/C(=C(\O)c3cc(C)ccc3C)C(=O)C(=O)N2CCN(C)C)ccc1O (centres undefined) | i | 6.3e-08 | i | -1% | 1.3%
COC(=O)c1ccc(CSc2nc3sc4c(c3c(=O)n2C)CCCC4)o1 | i | 7.6e-09 | i | . | -1.7%
CC(=O)c1cc2c(cc1NC(=O)c1ccc(-n3nc(C)cc3C)cc1)OCO2 | i | 3.8e-08 | i | ? | 4.6%
O=C(Nc1ccc(F)cc1)N(CCCN1CCOCC1)Cc1cc2cc3c(cc2[nH]c1=O)OCO3 | i | 1e-09 | i | 0% | -0.3%
CN(C(=O)c1cnc(N2CCN(c3ncccn3)CC2)c2ccccc12)c1ccc(Cl)cc1 | i | 1e-09 | i | . | 1.2%
COc1ccc(OCC(=O)N2CCN(c3nnc(-c4ccccc4)c4ccccc34)CC2)cc1 | i | 1e-09 | i | . | -1.3%
COc1ccc(S(=O)(=O)N(CC(=O)N2CCN(C)CC2)C2CCCCC2)cc1OC | i | 2.4e-08 | i | 2% | -1.2%
Cc1ccc(C)c(OCCCCCn2ccnc2)c1 | . | . | . | ? | -1.1%
N#CCSc1nnc(Cc2cccc3ccccc23)n1C1CCCCC1 | i | 2.8e-08 | i | ? | -1.0%
CCC(Sc1nc(=O)cc(N)n1-c1ccccc1)C(=O)Nc1ccc(Cl)cn1 (centres undefined) | i | 9.2e-09 | i | 6% | 1.3%
Cc1cc(C)c2[nH]c(=O)c(CN(CC3CCCO3)C(=O)C3CCCO3)cc2c1 (centres undefined) | i | 1e-09 | i | -2% | -0.8%
COc1ccc(-c2nnc3ccc(SCC(=O)NCc4ccco4)nn23)cc1OC | i | 1e-09 | i | 2%[11.4 µM] | 0.5%
O=C(NCCCN1CCN(CCCNC(=O)c2ccc(F)cc2)CC1)c1ccc(F)cc1 | i | 1.9e-08 | i | 0% | -5.7%
CCOc1cccc2cc(C(=O)Nc3cc(C)on3)c(=O)oc12 | i | 4.4e-09 | i | -1% | 0.7%
Cc1ccc(NC(=O)c2ccc(S(=O)(=O)NCC3CCCO3)cc2)cc1 (centres undefined) | i | 1e-09 | i | 6% | 1.5%
O=C(NCc1ccco1)c1cc2sccc2n1Cc1ccccc1 | i | 1e-09 | i | ? | 0.9%
COc1ncc2nc(-c3ccccc3)c(=O)n(C3CC3)c2n1 | i | 1e-09 | i | -1% | 9.7%
CCOc1ccc(-c2cc(CCCC(=O)NCc3cccnc3)no2)cc1 | . | . | . | ? | 2.9%
COc1cccc(Nc2cc(C)nc3nc(C)nn23)c1 | . | . | . | 1% | -2.7%
Cc1nc(SCC(=O)Nc2ccc3c(c2)OCO3)c(C#N)c2c1CCCC2 | i | 2e-08 | i | . | .
CC(=O)NCC12CC3CC(C1)CC(C(=O)O)(C3)C2 | i | 1.3e-09 | i | -6% | 2.8%
Cn1c(=O)c2c(nc(NCc3ccco3)n2C/C=C/c2ccccc2)n(C)c1=O | i | 5.3e-09 | i | 29% | 0.2%
CSc1nnc([C@@H](NC(=O)OC(C)(C)C)C(C)C)o1 | i | 1e-09 | i | 4% | 0.9%
COC(=O)c1ccc(S(=O)(=O)N2CCCC2)o1 | i | 1e-09 | i | ? | -0.1%
O=S(=O)(c1cc(Cl)ccc1Cl)n1nnc2ccccc21 | . | . | . | 7% | -0.2%
CCOc1ccc(-c2[nH]ncc2Oc2cccc(OC)c2)c(O)c1 | i | 3e-08 | i | 16% | 0.4%

A draw from above in order of formula weight, falling.
SMILES | A488 autofl | A647 fluor | Resorufin autofl | TSHR agonist | AID923
Cn1c(=O)c2c(nc(NCc3ccco3)n2C/C=C/c2ccccc2)n(C)c1=O | i | 5.3e-09 | i | 29% | 0.2%
CCOc1ccc(-c2cc(CCCC(=O)NCc3cccnc3)no2)cc1 | . | . | . | ? | 2.9%
COc1cccc(Nc2cc(C)nc3nc(C)nn23)c1 | . | . | . | 1% | -2.7%
CC(=O)NCC12CC3CC(C1)CC(C(=O)O)(C3)C2 | i | 1.3e-09 | i | -6% | 2.8%

(further entries)
SMILES | A488 autofl | A647 fluor | Resorufin autofl | TSHR agonist | AID923
COc1ccc(-n2nnc3c(SCC(=O)N4CCN(c5ccccc5)CC4)ncnc32)cc1 | . | . | . | ? | -1.2%
O=C(NCc1cn2ccsc2n1)Nc1ccc(Cl)cc1 | i | 4.3e-08 | i | 1% | -2.2%
O=C(OCc1nnc(-c2ccccc2)o1)c1ccc2c(c1)OCCO2 | i | 1e-09 | i | ? | 1.2%
Cc1ccc(C)n1-c1cc(S(=O)(=O)N2CCOCC2)ccc1N1CCCC1 | i | 1.1e-08 | i | ? | 6.3%
Cc1cc(=O)oc(C)c1C(=O)N1CCc2c([nH]c3ccccc23)C1C(C)C (centres undefined) | . | . | . | ? | 2.3%
O=C(Cn1cc2c(n1)CCCC2)N1CCCC1 | . | . | . | 1% | 1.4%
Cc1cc(C)n(Cc2ccc(C(=O)NCCC3=CCCCC3)o2)n1 | i | 3.6e-08 | i | . | .
COc1ccccc1-c1nc(-c2ccc(Br)cc2)no1 | . | . | . | -12% | 1.8%
O=S(=O)(Nc1ccc2c(c1)nc1n2CCOC1)c1ccccc1 | i | 1e-09 | i | 3% | 1.4%
O[C@@H](c1ccccc1)C1CCN(CCc2ccccc2)CC1 | . | . | . | ? | 0.2%
O=C(CSc1nnnn1-c1ccccc1)Nc1nsc(-c2ccccc2)n1 | i | 1e-09 | i | 29% | 1.6%
O=C(Cn1c(=O)oc2cc(S(=O)(=O)N3CCCC3)ccc21)Nc1ccc(C(F)(F)F)cc1 | i | 3.9e-09 | i | 1%[11.4 µM] | 1.6%
Cc1noc(C)c1-c1ccc2ncnc(N(C)C)c2c1 | i | 1e-09 | i | ? | 5.0%
CCC(Sc1nc2sc(C(=O)OC)c(C)c2c(=O)n1N)C(=O)NCC1CCCO1 (centres undefined) | i | 1.4e-08 | i | 4% | -1.9%
CCOC(=O)N1CCN(C(=O)CSc2nc3c(cnn3-c3ccc(Cl)cc3)c(=O)[nH]2)CC1 | . | . | . | 0%[11.4 µM] | -1.0%
O=C(CSc1ncn[nH]1)Nc1ccc(Br)cc1F | i | 1e-09 | i | -2% | -2.8%
CCOC(=O)c1csc(NC(=O)c2ccc(S(=O)(=O)N3CCCC3)cc2)n1 | i | 2e-09 | i | 5%[11.4 µM] | 0.3%
COC(=O)[C@@]1(Cc2ccc(OC)cc2)[C@H]2c3cc(C(=O)N4CCCC4)n(Cc4ccccn4)c3C[C@H]2CN1C(=O)c1ccccc1 | . | . | . | ? | -2.5%
Cc1ccc(-n2nnc3c(=O)n(Cc4ccccc4C)cnc32)cc1 | . | . | . | -7% | 1.1%
